Compound activity: PubChem, several laboratories
GALR2 agonist = activates the human galanin receptor 2 | actives 0.48% (n = 140,000) | GALR2-expressing cells, agonist activation read-out | activation, %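 (tested at 5 µM)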 | AID 803 | O43603;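 active = above mean plus 3 SD of all compounds, about 5% in these data, not always enough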;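 also: 0% = vehicle buffer wells and 100% = reference agonist at full effect; tested in CHO reporter cells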
Insulin prom inh = TRM-6 insulin promoter activity inhibition | actives 0.9% (n = 130,000) | TRM-6 cells (human fetal islet line), insulin promoter-eGFP reporter, imaging; reporter expression induced with tamoxifen | inhibition, % at 2 µM;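 active = inhibition above the mean plus 3 SD, with well images judged a real hit on visual review, cut at about 60% in these data, passing the limit was not always enough; inconclusive = inhibition over the cutoff but images rejected on review; inactive = inhibition not above the cutoff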
PKD1 inh = inhibitors of human PKD1 kinase; Q15139; inhibition, %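 (about 10 µM by stock and volumes)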; actives 0.056% (n = 200,000); PKD1 kinase fluorescence polarization assay;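 active = inhibition of 50% or more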;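 also: controls were vehicle for no effect and a reference inhibitor for full effect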
Target sequence (Q15139 whole entry, looked up): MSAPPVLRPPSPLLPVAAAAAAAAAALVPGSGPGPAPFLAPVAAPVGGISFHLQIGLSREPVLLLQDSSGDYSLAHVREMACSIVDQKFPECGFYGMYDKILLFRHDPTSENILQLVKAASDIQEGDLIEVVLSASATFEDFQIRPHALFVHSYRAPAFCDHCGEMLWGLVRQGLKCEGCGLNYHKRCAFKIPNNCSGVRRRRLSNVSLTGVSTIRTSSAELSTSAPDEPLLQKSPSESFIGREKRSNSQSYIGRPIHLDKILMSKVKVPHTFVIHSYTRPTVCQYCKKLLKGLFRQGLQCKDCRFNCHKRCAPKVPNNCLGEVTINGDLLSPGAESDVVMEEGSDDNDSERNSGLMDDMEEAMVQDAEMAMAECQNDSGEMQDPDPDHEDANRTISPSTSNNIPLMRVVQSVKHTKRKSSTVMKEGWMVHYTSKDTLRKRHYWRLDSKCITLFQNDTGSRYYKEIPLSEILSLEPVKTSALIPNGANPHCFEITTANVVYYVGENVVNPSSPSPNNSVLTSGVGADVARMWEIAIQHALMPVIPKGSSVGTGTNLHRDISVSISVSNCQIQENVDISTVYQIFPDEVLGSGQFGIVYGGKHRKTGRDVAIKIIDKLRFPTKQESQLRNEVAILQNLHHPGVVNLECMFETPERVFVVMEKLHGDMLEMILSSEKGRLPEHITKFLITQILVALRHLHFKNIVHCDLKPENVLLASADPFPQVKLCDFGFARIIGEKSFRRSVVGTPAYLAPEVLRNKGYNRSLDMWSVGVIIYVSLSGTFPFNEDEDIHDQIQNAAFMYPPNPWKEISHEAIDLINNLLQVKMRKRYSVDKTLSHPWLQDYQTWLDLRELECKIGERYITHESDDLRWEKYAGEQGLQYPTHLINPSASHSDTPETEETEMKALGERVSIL
HSV augment = HSV replication enhancement; HSV replication augmentation in cells, fold increase; maximum fold increase; actives 0.005% (n = 220,000); AID 1956;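 active = peak rise of 1.5-fold or more in the series; inconclusive = self-fluorescent or not available for retest; tested in PC3 cells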;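 also: first round at 10 µM; read as green reporter fluorescence; hits show the peak of a series up to 25 µM; 1 = signal of infected wells without compound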
RGS16-Gao = modulates binding between human RGS16 and Galphao; bead-based flow cytometry RGS16-Galphao binding, fluorescence; actives lie on both sides; binding response (% of control), % at 10 µM; actives 0.38% (n = 220,000);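 active = below 25% or above 175%, edge rows of some plates excepted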;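 also: Galphao activated by GDP with aluminum fluoride before binding; 100% = wells without compound and 0% = beads without RGS; some results beyond the cut were filed as inactive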
Insulin prom inh cell count = second read-out of Insulin prom inh, no call of its own (marks repeat the call); normalized cell count, %; measured here: cell count, toxicity; reference of the scale not given here;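 cells exposed to compound for 48 h; stained nuclei by imaging scaled within each plate; lower means fewer cells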
HSV augment primary fold = second read-out of HSV augment, no call of its own (marks repeat the call); fold increase; compound at 10 µM; measured here: primary screen fold increase 10 uM; tested in PC3 cells;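 GFP signal in the first replicate; 1 = infected wells without compound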
The depositor's hits bear a star; i = inactive; ? = inconclusive; / = no result given.

SMILES	GALR2 agonist	Insulin prom inh	Insulin prom inh cell count	PKD1 inh	HSV augment	HSV augment primary fold	RGS16-Gao
Cc1cc(C)cc(N(C(=O)CNS(=O)(=O)c2ccccc2)C(C(=O)NCc2ccccc2)c2ccc(C)o2)c1 (centres undefined)	-1.6	/	/	5	i	1.1	93
CCOC(=O)Cc1csc(N(C)C)n1	/	/	/	-5	i	1.1	103
O=C(CNC(c1ccccc1)c1ccccc1)Nc1ccc(F)cc1	-0.5	-7	46	4	i	1	109
Cn1ncc2c(c(SCc3ccc(Cl)cc3Cl)nn2C)c1=O	/	/	/	/	i	1.1	92
S=C(Nc1ccccc1)Nc1ccccc1-n1cccc1	/	/	/	/	i	1.1	103
O=C(Cc1ccccc1)NNC(=O)Cc1ccccc1	/	/	/	0	i	1.1	102
CCNC(=O)COc1ccc(OCc2ccccc2)cc1	/	-11	87	-5	i	1.1	99
Cc1c(Cl)cccc1NC(=O)CCC(=O)N/N=C/c1ccc[nH]1	0.4	/	/	-9	/	/	107
COc1cccc(-n2c(Cc3cc(=O)[nH]c(=O)[nH]3)nnc2SCC(=O)Nc2ccccc2)c1	-1.7	/	/	8	i	0.9	100
Cc1ccc(C)c(N2CCN(S(=O)(=O)c3ccc4c(c3)CCC(=O)N4)CC2)c1	-1.7	16	140	-2	i	0.8	107
CC(C)(C)C(=O)COC(=O)c1cccc(NC(=O)c2ccco2)c1	-2.9	47	117	-25	i	0.98	101
O=C(COC(=O)C1CC1)Nc1ccccc1Sc1ccccc1	0.5	32	122	-2	i	0.97	107
Cc1cc(C)n2nc(SCC(=O)N(C)C)nc2n1	-2.8	34	140	-1	i	0.93	102
C=CCn1c(CCCOc2ccc(Cl)cc2Cl)nnc1SCC(=O)Nc1nccs1	-2.8	48	84	6	i	1	102
O=C(NCc1cccc(C(F)(F)F)c1)C1CCCN(c2ncccn2)C1 (centres undefined)	-2.8	/	/	-12	i	0.98	71
CCCCOc1ccc(-c2ncc(N)cn2)cc1	/	/	/	/	i	0.95	104
CN(C)c1ccc(S(=O)(=O)N2CCCCC2)cc1NC(=O)COc1ccccc1F	/	/	/	/	i	0.7	104
COc1ccc(C2N(c3ccc(OC)cc3)C(=S)N3CCCN23)cc1 (centres undefined)	0.2	-8	63	-9	i	1.1	82
COc1ccc(NC(=S)NC(NC(=O)c2cccc(Cl)c2)C(Cl)(Cl)Cl)c([N+](=O)[O-])c1 (centres undefined)	-1.6	-38	126	-3	i	1.1	103
O=C(c1ccccc1)C(Cn1cncn1)C(Sc1ccccc1)c1ccccc1 (centres undefined)	-2.1	14	143	-12	?	/	204
CCCCCCn1c(COc2ccccc2F)nnc1SCC(=O)N1c2ccccc2NC(=O)C1(C)C	-0.5	-12	107	1	i	0.81	61
CCOc1ccc2[nH]c(=O)c(CN(CCO)C(=O)CC)cc2c1	-2.7	-24	113	-5	i	0.98	101
CCC(C)NC(=O)c1ccc([N+](=O)[O-])c(Cl)c1 (centres undefined)	-0.6	/	/	0	i	1	102
Cc1cc[n+](-c2[nH]c(=O)sc2/C=N/N=C(\[O-])c2ccccc2)cc1C	/	/	/	-3	?	/	101
O=C(N/C(=C\c1ccc(F)cc1)C(=O)N1CCCCCC1)c1ccccc1	/	-73	120	1	i	1.1	115
CCOC(=O)c1c(C)[nH]c(N=Nc2ccc(C)cc2C)c1C	-1.7	6	136	6	i	0.94	99
CCc1ccccc1NC(=O)CCc1nc(-c2ccc(C)cc2)no1	-1.0	47	28	-13	i	0.77	102
Cc1ccc(N=Cc2cccc(O)c2O)c(C)c1	-0.8	/	/	5	i	0.85	76
CC(=O)NCCn1c(SCC(=O)NCCc2ccc(S(N)(=O)=O)cc2)nc2ccccc2c1=O	/	29	33	7	i	0.96	107
COc1ccc(NC(=O)c2ccc3c(c2)OCO3)cc1Cl	-0.1	6	100	-4	i	1.1	68
C=CCn1c(-c2ccoc2)n[nH]c1=S	-2.6	12	101	-4	i	0.91	100
Cc1cccc(CSc2nnc(-c3ccco3)o2)c1	/	/	/	-3	i	0.97	96
C=CCNC(=O)/C(C#N)=C/c1cn(-c2ccccc2)nc1-c1ccc(OC)c([N+](=O)[O-])c1	2.0	4	113	-8	i	0.86	105
COc1ccc(OCCCn2c(=O)oc3ccccc32)cc1	-2.7	0	80	-11	i	1	99
O=C(NNC(=S)NC1CC2CCC1C2)c1ccc(Cl)cc1 (centres undefined)	/	/	/	/	i	0.96	99
COc1ccc(-c2cc(O)cc(O)c2)cc1	-3.3	i	38	-11	i	1	102
CC1(C)SC(=S)N(Cc2ccc3c(c2)OCO3)C1N(O)C(=O)NC1CCCCC1 (centres undefined)	0.1	-42	176	-2	i	0.92	111
Cc1ccc(CCN2CC(C(=O)NCc3ccco3)CC2=O)cc1 (centres undefined)	-1.7	27	113	-4	i	1.1	113
Cc1cccc(NC(=S)NCC23C=CC(O2)C2C(=O)N(c4ccc(Cl)cc4)C(=O)C23)c1 (centres undefined)	0.3	0	100	3	i	0.8	101
CCOc1ccc(-n2nnnc2SCC(=O)c2ccccc2)cc1	0.2	/	/	-5	i	0.78	100

A few values from the list:
For HSV augment primary fold, O=C(NNC(=S)NC1CC2CCC1C2)c1ccc(Cl)cc1 (centres undefined) is listed with 0.96
For Insulin prom inh, CCOC(=O)c1c(C)[nH]c(N=Nc2ccc(C)cc2C)c1C is listed with 6
For RGS16-Gao, Cc1cccc(NC(=S)NCC23C=CC(O2)C2C(=O)N(c4ccc(Cl)cc4)C(=O)C23)c1 (centres undefined) is listed with 101

(listing goes on)
SMILES	GALR2 agonist	Insulin prom inh	Insulin prom inh cell count	PKD1 inh	HSV augment	HSV augment primary fold	RGS16-Gao
CC(=O)c1cc(C#N)c(NCc2ccccc2)nc1C	/	-21	113	4	i	1.1	102
CCC(C(=O)Nc1ncn[nH]1)(C(F)(F)F)C(F)(F)F	-2.0	/	/	-4	i	0.95	105
CC1(C)COC(c2cc([N+](=O)[O-])ccc2Cl)=N1	-0.3	3	117	1	i	1	106
Cc1oc(-c2cccs2)nc1CS(=O)CC(=O)NCCCOC(C)C (centres undefined)	-1.8	-108	54	3	i	0.85	92
Cc1cc(C)c(NC(=O)CS)c(Cl)c1	/	/	/	-3	i	0.96	101
CC1CCCCC1NC(=O)CSc1nncn1N (centres undefined)	/	/	/	4	i	0.94	96
CN(C)C(CN=C1NS(=O)(=O)c2ccccc21)c1ccco1 (centres undefined)	/	11	131	4	i	0.97	96
CC(C)CC1(C)NC(=O)N(CC(=O)Nc2cccc(S(=O)(=O)N(C)c3ccccc3)c2)C1=O (centres undefined)	/	-32	68	2	i	1	102
COc1ccc(Cc2nnc(SCC(=O)NCC3CCCO3)o2)cc1 (centres undefined)	-0.8	/	/	-10	i	0.83	108
COc1ccccc1OCC(=O)Nc1cccc(C(=O)N2CCOCC2)c1	-2.2	60	112	0	i	0.57	104
CC(NC(=O)C(=O)NCCCn1ccnc1)c1ccccc1 (centres undefined)	/	/	/	-5	i	0.97	104
CCOc1cc(/C=N/NC(=O)c2cccnc2)ccc1OCc1ccc(C(=O)OC)o1	/	18	109	-3	i	1.2	98
N#CC1=C2SCC(O)(c3ccccc3)N2C(=O)CC1c1ccccc1 (centres undefined)	-2.3	/	/	2	i	0.73	89
Nc1nnc(SCC(=O)OCc2ccc(F)cc2)s1	-0.2	/	/	-5	i	0.91	102
NC(=O)C[C@@H]1N[C@]2(C(=O)Nc3ccccc32)[C@@H]2C(=O)N(C3CCCCC3)C(=O)[C@H]12	-3.9	20	37	-1	i	0.91	92
O=C(CSc1nn(-c2ccccc2)c(=S)s1)Nn1cnnc1	-0.7	/	/	-4	/	/	100
O=C1Nc2cc(C(=O)N3CCN(Cc4ccccc4)CC3)ccc2SC1N1CCOCC1 (centres undefined)	0.1	/	/	2	/	/	96
CC(c1nc2ccccc2c(=O)[nH]1)N(C)c1ccc2ccccc2c1 (centres undefined)	-0.2	37	128	-16	i	0.92	106
COc1ccc2oc(=Nc3cccc(F)c3)c(C(N)=O)cc2c1	/	/	/	-3	i	0.87	103
COc1ccc(N2C(=O)CSC23CCC(C(C)(C)C)CC3)cc1 (centres undefined)	-0.4	20	142	-1	i	0.97	107
CC1(C)CC(=O)C2=C(C1)Nc1ccccc1[S@]2=O	/	/	/	/	i	0.71	83
CCOC(=O)c1ccc(NC(=S)N(CCCN2CCCC2)Cc2ccco2)cc1	-0.5	33	96	-6	i	0.86	101
O=C(NCc1cccnc1)c1cc2nc(-c3cccs3)cc(C(F)(F)Cl)n2n1	/	/	/	-5	i	0.74	103
CCc1cc(SC#N)ccc1N	/	/	/	-5	i	0.85	80
CC/C(Cc1ccccc1)=N/NC(=O)c1cccc(Br)c1	-0.2	-7	132	2	i	0.86	104
COc1cc(/C=N/n2c(-c3cc(C)[nH]n3)n[nH]c2=S)cc(OC)c1OC	/	/	/	/	i	1	104
COc1ccc(CN(C(=O)c2ccco2)c2ccccc2)cc1	-2.7	21	151	12	i	0.89	98
O=C1[C@@H]2C(Cc3ccc(O)cc3)NC3(C(=O)Nc4ccc(F)cc43)[C@@H]2C(=O)N1c1ccccc1 (some centres undefined)	-0.5	-23	158	9	i	0.9	91
Cc1ccc(N2CC(C(=O)NCCc3ccc(S(N)(=O)=O)cc3)CC2=O)cc1 (centres undefined)	-2.1	12	104	-8	i	0.88	97
CCCC(=O)Nc1ccc(N2CCN(C(=O)c3ccccc3C)CC2)cc1	-1.2	-444	48	-3	i	0.82	101
O=C1CSCC(=O)N1c1ccccc1	-1.6	/	/	5	i	0.85	99
O=C(CN1C(=O)COc2ccccc21)Nc1ccc2c(c1)OCCO2	-0.7	25	106	4	i	0.67	96
O=C(Cc1ccccc1[N+](=O)[O-])NCc1ccccc1Cl	-1.9	17	128	2	i	1	100
Cc1nn(C(=O)c2ccco2)c(C)c1Sc1ccc(Br)cc1	-2.6	/	/	-9	/	/	103
Cc1cccnc1NC(=O)c1cc2c(=O)oc3ccccc3c2s1	0.8	56	124	-3	i	0.75	108
CCOC(=O)c1[nH]c2ccc(OC)cc2c1NC(=O)NC(C)C	-0.7	-13	176	-5	i	0.84	56
Cc1nnc(SCc2ccccc2)n1N	-1.5	/	/	3	/	/	101
O=C(Nc1ccc(Cc2ccncc2)cc1)c1cccs1	/	-62	83	2	i	0.93	101
COc1ccc(S(=O)(=O)N2CCC(C(=O)Nc3ccc(OC)c(OC)c3)CC2)cc1C	-1.3	-8	155	-9	i	0.99	/
C=CCn1c(SCC(=O)NC(N)=O)nnc1-c1cc2c(s1)CCC(CC)C2 (centres undefined)	0.0	/	/	7	i	0.95	105

Among those listed so far, these contain a nitro group on carbon:
SMILES	GALR2 agonist	Insulin prom inh	Insulin prom inh cell count	PKD1 inh	HSV augment	HSV augment primary fold	RGS16-Gao
COc1ccc(NC(=S)NC(NC(=O)c2cccc(Cl)c2)C(Cl)(Cl)Cl)c([N+](=O)[O-])c1 (centres undefined)	-1.6	-38	126	-3	i	1.1	103
CCC(C)NC(=O)c1ccc([N+](=O)[O-])c(Cl)c1 (centres undefined)	-0.6	/	/	0	i	1	102
C=CCNC(=O)/C(C#N)=C/c1cn(-c2ccccc2)nc1-c1ccc(OC)c([N+](=O)[O-])c1	2.0	4	113	-8	i	0.86	105
CC1(C)COC(c2cc([N+](=O)[O-])ccc2Cl)=N1	-0.3	3	117	1	i	1	106
O=C(Cc1ccccc1[N+](=O)[O-])NCc1ccccc1Cl	-1.9	17	128	2	i	1	100

The list continues.
SMILES	GALR2 agonist	Insulin prom inh	Insulin prom inh cell count	PKD1 inh	HSV augment	HSV augment primary fold	RGS16-Gao
CN(C)c1ccc(-n2cccc2/C=C/[N+](=O)[O-])cc1	/	23	100	-5	/	/	97
O=C(O)CCc1ccc(-c2cccs2)n1NC(=O)c1ccc(Cl)cc1	-1.5	61	72	-1	i	0.88	107
COc1ccc(-c2ccc(CCC(=O)O)n2-c2ccc(O)cc2)cc1	/	39	85	-4	i	0.98	106
CNCc1ccccc1Sc1ccc(OC)cc1	-3.0	/	/	-6	/	/	101
Cc1ccc(CNc2ncc(-c3ccccc3)n2C)o1	/	/	/	-18	i	0.96	104
Cc1ccc(SCCN2CCN(C)CCC2=O)cc1	/	/	/	/	i	1	100
Cc1ccc(NCc2nc3ccccc3n2CCOc2ccccc2)cc1	-1.4	/	/	-3	i	0.95	70
COc1ccc(-n2c(-c3cnccn3)n[nH]c2=S)cc1	-1.7	-50	61	-5	i	0.92	92
Cc1nc(-c2ccc(C(=O)Nc3ccc(F)cc3)cc2)cs1	/	6	102	-3	i	1.1	107

Quoted from the entries so far for reference:
SMILES	GALR2 agonist	Insulin prom inh	Insulin prom inh cell count	PKD1 inh	HSV augment	HSV augment primary fold	RGS16-Gao
O=C1CSCC(=O)N1c1ccccc1	-1.6	/	/	5	i	0.85	99
O=C(CN1C(=O)COc2ccccc21)Nc1ccc2c(c1)OCCO2	-0.7	25	106	4	i	0.67	96
